TRPML1 agonist: activates the human TRPML1 channel. TRPML1-expressing cells, Ca2+ dye fluorescence, FDSS; host cell line not named in the record; reference of the full effect not given here. activation, % (test concentration not listed). AID 624414. Q9GZU1. 410,000 compounds, 0.12% hits; in the data active = activation above about 50%; inconclusive = about 30% to 50%; inactive = below about 30%; also: 0% is about no effect; the text of the record puts the active cut at 80%
Target sequence (Q9GZU1 whole entry, looked up): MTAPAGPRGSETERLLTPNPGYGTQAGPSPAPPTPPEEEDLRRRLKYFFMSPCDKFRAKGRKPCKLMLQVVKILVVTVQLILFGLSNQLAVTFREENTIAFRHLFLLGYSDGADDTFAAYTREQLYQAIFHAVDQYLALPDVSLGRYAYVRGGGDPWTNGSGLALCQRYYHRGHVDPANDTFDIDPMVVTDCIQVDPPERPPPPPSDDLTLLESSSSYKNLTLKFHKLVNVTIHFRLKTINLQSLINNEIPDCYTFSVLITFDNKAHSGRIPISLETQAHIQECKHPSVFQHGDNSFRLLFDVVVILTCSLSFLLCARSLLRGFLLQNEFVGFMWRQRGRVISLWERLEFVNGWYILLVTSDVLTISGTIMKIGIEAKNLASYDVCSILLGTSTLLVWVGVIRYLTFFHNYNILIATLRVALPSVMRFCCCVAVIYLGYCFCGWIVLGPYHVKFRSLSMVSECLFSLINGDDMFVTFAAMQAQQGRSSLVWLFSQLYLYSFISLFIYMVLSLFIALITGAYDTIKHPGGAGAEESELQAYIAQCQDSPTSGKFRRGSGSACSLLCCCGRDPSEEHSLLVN
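Agonist activity was taken from a 110 s kinetic Ca2+ dye read on the FDSS after pinning compounds onto TRPML1-DL cells. The cells were seeded at 1,500/well with Tet inducer, incubated about 16 h, then dye-loaded at room temperature.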
Menin MLL FP FL: displaces fluorescein MLL peptide from human menin; Fluorescence polarization, fluorescein-MLL peptide displacement from menin; FP activity change, % at 61.4 µM; 290,000 tested, under 10 active; AID 1766; inconclusive = falling polarisation curve, or a change in total fluorescence; inactive = total fluorescence flat and polarisation flat or rising; no compound was filed as active; the % refers to the polarisation; negative = inhibition;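 also: % of control where 0% means no effect; inhibitors lower the polarisation; unlabelled MLL peptide was the positive control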
PINK1 expr mod: changes PINK1 expression | PINK1 immunofluorescence, high-content cytometry, 24 h | Potency, µM (series often up to 76.6 µM), without a hit: top-dose activation (PINK1 increase), usual class: activators | 410,000 compounds, 0.2% hits | AID 624263; active = well fitted activation curve with a large enough effect; inconclusive = small, poorly fitted or top-dose-only effect; inactive = flat fitted curve, though single readings scatter; cell line not stated here;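 also: potency is read from the fitted curve at half-maximal effect; % of control where 0% means no effect; nearly all actives have a fitted effect of over 65% in size; a mitochondrial uncoupler was the plate control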
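Fluorescence from anti-PINK1 antibody, together with nuclear and cell stains, was scanned on a laser-scanning cytometer. Before staining, stable-line cells were incubated 24 hours with compounds at 5 concentrations; primary antibody 12 h at 10 degrees C.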
TRPML1 blocker: inhibitors of human TRPML1 channel; Q9GZU1; TRPML1-inducible cells, Ca2+ dye fluorescence, FDSS; stronger effect = lower value; inhibition of EC80 agonist-evoked calcium signal; activity change, negative = inhibition, % (concentration not given with the values); 390,000 compounds, 0.02% hits; in the data active means activity change below about -50%; inconclusive means about -30% to -50%; inactive means above about -30%;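 also: stimulus is agonist 54-4 at its EC80 concentration; % is scaled to controls: 0 for no effect and ±100 for the full control effect; the text of the record puts the active cut at -80%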
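TRPML1-DL cells, Tet-induced overnight (~16 h, 37 °C) at 1,500 cells/well, were loaded with Ca8 no-wash dye plus quencher for 45-90 min at room temperature. Compounds were pinned during FDSS kinetic reading; agonist 54-4 at EC80 (4 uM final) then added.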
TRPV1 PAM: enhances activation of the human vanilloid receptor TRPV1; Q8NER1; TRPV1-expressing cells, Fluo-8 calcium influx, capsaicin EC20 potentiation; host cell line not named in the record; control for the full effect not named in the record; potentiation, % at 8.33 µM; 320,000 compounds, 0.02% hits; active means potentiation above 80%; inconclusive means 30% to 80%; inactive means below 30%; also: 0% is about no effect
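TRPV1-expressing cells were cultured overnight at 35.5C and loaded with Fluo-8 calcium dye for 40 to 90 min at room temperature. After a 10 s baseline, compound was added and calcium influx was read kinetically for 3 min (ex 480/em 520 nm).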
ClpP mod: qHTS Assay for Activators of ClpP. ATP-dependent Clp protease proteolytic subunit (Bacillus subtilis (strain 168)), P80244. 340,000 compounds, 1.9% hits. purified B. subtilis ClpP, FRET peptide cleavage, 20 min. Potency, µM (highest dose often 57.5 µM), for inactives: at the highest dose activity change, negative = active. AID 651965, 2013; active = well fitted falling curve with a large enough effect; inconclusive = small, poorly fitted or top-dose-only effect; inactive = no such curve, though single readings can be large or run the other way; also: potency is read from the fitted curve at half-maximal effect; the source files actives as falling curves though it sought activators and does not explain the sign; nearly all actives have a fitted effect of over 65% in size; many hits overshoot -100%
Target sequence (P80244 whole entry, looked up): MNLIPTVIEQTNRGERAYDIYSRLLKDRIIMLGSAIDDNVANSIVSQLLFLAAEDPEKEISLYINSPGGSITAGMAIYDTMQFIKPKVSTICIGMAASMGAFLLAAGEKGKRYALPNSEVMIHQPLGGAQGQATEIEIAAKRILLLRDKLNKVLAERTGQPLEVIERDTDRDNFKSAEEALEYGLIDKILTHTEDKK
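FRET quenching reversal measured ClpP activation: 10 microg/mL B. subtilis ClpP at pH 8 with the FRET-FV decapeptide, read at 430 nm after 320 nm excitation. The 20-min minus 0-min signal was scaled between DMSO/no-enzyme wells and ADEP (5.8 microM final).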
Sfp inh: inhibitors of Bacillus subtilis Sfp phosphopantetheinyl transferase. AID 1490. 310,000 compounds, 3.5% hits. Potency, µM, inactives show max response, negative = inhibition, most hits filed as inhibitors. Q9F4F7. Biochemical Sfp PPTase activity, qHTS; active = well fitted inhibition curve with a large enough effect; inconclusive = small, poorly fitted or top-dose-only effect, or another doubt; inactive = no such curve, though single readings can be large or run the other way;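 also: the enzyme is Sfp with the accession as filed and its product quenches rhodamine fluorescence; potency is read from the fitted curve at half-maximal effect; 0% = enzyme reaction without inhibitor and -100% = no enzyme wells; top concentration of the series not given in the record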
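With Hepes-Na pH 7.6 buffer containing 10 mM MgCl2, Sfp (15 nM) modified BHQ-2-YbbR (12.5 uM) using rhodamine-CoA (5 uM). Two reads 30 minutes apart at 525/598 nm yielded each well's rate.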
An asterisk follows results filed as active; ? = inconclusive; / = not tested or not shown; & = joins results of further samples; [ ] = remark or other dose.

SMILES | TRPML1 agonist | Menin MLL FP FL | PINK1 expr mod | TRPML1 blocker | TRPV1 PAM | ClpP mod | Sfp inh
CCOC(CNC(=O)C(=O)Nc1cc2c3c(c1)CCC(=O)N3CCC2)OCC | -0.2 | -2.5 | 0.7% | -6 | -1 | -1.3% | 25%
COc1ccc(OC)c(CCNC(=O)c2cnn(-c3ccc(C)cc3C)c2C2CCN(C(=O)OC(C)(C)C)CC2)c1 | -0.6 | / | 1.6% | -11 | / | 0.3% | /
CN1CCN(CCCNC(=O)c2cc3c(-c4ccc(Cl)cc4)nn(C)c3s2)CC1 | -0.2 | 0.3 | 17% | 8 | 11 | 4.2% | 4%
O=C(COc1ccc(Cl)cc1)NCc1nnc(SCC(=O)N2CCCCC2)o1 | -0.7 | 0.1 | 1.2% | -4 | -3 | -2.2% | 4%
CN(C(=O)C1CCCCN1S(=O)(=O)c1ccccc1)c1ccccc1 (configuration not stated) | 0.0 | / | -1.3% | -1 | / | / | /
COc1ccc(N=N/C(C(C)=O)=C(/C)O)cc1 | -0.2 | -1.1 | -2.1% | -1 | -2 | / | 14%
O=C(NC1CCCCC1)C(c1ccco1)N(Cc1cccs1)C(=O)Cn1nnc2ccccc21 (configuration not stated) | 3.3 | 1.6 | 7.9%[38.3 µM] | 10 | -2 | 1.3% | -25%
COc1ccccc1C(=O)COC(=O)CN1C(=O)C2CC=CCC2C1=O (configuration not stated) | -1.0 | / | 1.1% | 8 | 2 | / | /
COCC(=O)Nc1ccc(N2CCCC2)c(S(=O)(=O)Nc2ccccc2OC)c1 | -0.5 | / | 0.6% | 4 | ? | -2.7% | /
O=C1Nc2ccccc2SC1=Cc1ccccc1 | 2.2 | / | 0.7% | -4 | / | 3.7% | /
Nc1nc(SCc2cccc([N+](=O)[O-])c2)n[nH]1 | -0.3 | 3.3 | 7.4% | 54 | 3 | -0.9% | 11%
C[n+]1cn(Cc2ccc(C#N)cc2)c2ccccc21 | -0.6 | -0.7 | 0.2% | 29 | -8 | -0.8% | 1%
NC(=O)CC(NC(=O)Cc1ccc(Cl)cc1)c1ccc(NC2CCCCC2)c([N+](=O)[O-])c1 (configuration not stated) | 0.1 | 2.8 | 1.2% | -10 | -4 | 2.6% | 9%
CCOC(=O)c1scc(-c2ccc(C)cc2)c1S(=O)(=O)Nc1cc(C)ccc1C | -0.1 | / | 0.7% | -2 | / | -0.5% | /
COc1ccccc1N1CC(C(=O)Nc2ccccc2N2CCCC2)CC1=O (configuration not stated) | 2.3 | / | 2.0% | 13 | -10 | / | /
CCc1nc2ccccc2c(NC(=O)CN2CC(C)CC(C)C2)c1C (configuration not stated) | 0.9 | -1.5 | -1.3% | -17 | -5 | / | 4%
Cc1nn(CC(=O)N2CCN(c3cccc(Cl)c3)CC2)c(=O)c2c1sc1ccccc12 | -0.4 | / | 6.2% | -3 | / | -4.4% | /
CN1CCN(C(=O)/C=C/c2ccc([N+](=O)[O-])cc2)CC1 | 0.3 | 4.1 | 0.0% | -10 | -1 | -0.8% | 13%
Cc1ccc(C(=O)NC2CCN(S(=O)(=O)c3ccc(C)cc3)CC2)cc1 | -0.3 | 2.6 | 0.5% | -15 | 2 | / | 11%
CCn1c2ccccc2c2cc(NC(=O)CNCC3CCCO3)ccc21 (configuration not stated) | -0.7 | -1.0 | -0.2% | 5 | -9 | / | -32%
CC(=O)c1cccc(S(=O)(=O)NCCCN2CCOCC2)c1 | 0.9 | / | 1.2% | 2 | 0 | -0.4% | /
CCc1cccc(C)c1NC(=O)c1cc2ccccc2o1 | 1.4 | / | 5.5% | 31 | / | -3.1% | /
Cc1cc(=O)[nH]c(SCC(=O)Nc2ncc(S(=O)(=O)c3ccc([N+](=O)[O-])cc3)s2)n1 | 0.1 | 2.6 | 0.5% | -1 | 5 | / | -4%
O=C1c2ccccc2C(=O)N1CCCCN(C(=O)c1cc2ccccc2oc1=O)c1ccc(F)cc1F | -0.4 | 8.4 | -0.3% | 1 | 9 | -2.4% | -2%
CCCCN(C)C(=O)c1ccc2c(c1)N(Cc1ccc(F)cc1)C(=O)c1ccccc1S2(=O)=O | 0.4 | / | 3.0% | -11 | / | 1.5% | /

Profiles, looked up by structure. Values in the order: TRPML1 agonist	Menin MLL FP FL	PINK1 expr mod	TRPML1 blocker	TRPV1 PAM	ClpP mod	Sfp inh
Entry for COc1ccccc1N1CC(C(=O)Nc2ccccc2N2CCCC2)CC1=O (configuration not stated) → 2.3	/	2.0%	13	-10	/	/
Entry for NC(=O)CC(NC(=O)Cc1ccc(Cl)cc1)c1ccc(NC2CCCCC2)c([N+](=O)[O-])c1 (configuration not stated) → 0.1	2.8	1.2%	-10	-4	2.6%	9%

Continued.
SMILES | TRPML1 agonist | Menin MLL FP FL | PINK1 expr mod | TRPML1 blocker | TRPV1 PAM | ClpP mod | Sfp inh
O=C(CSc1nnnn1C1CCCC1)NCc1ccccc1 | 0.3 | -0.4 | -0.7% | 2 | 8 | -2.6% | -10%
O=Cc1cn(-c2ccccc2)nc1-c1cc2ccccc2oc1=O | 0.0 | 4.0 | -1.3% | -3 | -7 | -30% | 14%
CCOc1ccccc1NC(=O)CSc1nc(=O)n(CCN2CCOCC2)c2c1CCCC2 | -0.2 | / | -1.0% | 28 | -1 | 0.8% | /
Cc1ccc(S(=O)(=O)N2CCN(C(=O)CN(Cc3ccco3)Cc3cccs3)CC2)cc1 | -0.6 | / | -0.2% | -5 | / | / | /
O=C(Cn1cnc2scc(-c3ccccc3)c2c1=O)N1CCOCC1 | -0.4 | -0.4 | ? | 11 | 12 | 0.5% | 12%
COc1ccc(N2C(=O)NC(NS(=O)(=O)c3ccc(Cl)cc3)(C(F)(F)F)C2=O)cc1 (configuration not stated) | -0.8&2.9 | -2.4 | 1.8%&6.1% | 3&-7 | ? | -0.1%&-1.9% | 22%
COC(=O)C1C(=O)c2c([nH]c(C(=O)OC3CCCC3C)c2C)CC1C (configuration not stated) | 0.1 | 0.0 | 0.7% | 4 | -4 | 1.1% | 5%
COc1ccc(/C=C/c2onc(C)c2S(=O)(=O)N2CCC(C(=O)N3CCCCCC3)CC2)cc1 | 0.8 | 0.8 | 0.4% | 35 | -7 | -27% | -9%
COc1ccc(S(=O)(=O)N2CCCC(C(=O)Nc3ccc(NC(=O)c4ccccn4)cc3)C2)cc1 (configuration not stated) | 1.5 | 2.5 | 6.3%[38.3 µM] | -8 | 6 | -14% | 1%
Cc1nn(-c2ccccc2)c2sc(C(=O)c3c(N)n(C)c(=O)n(C)c3=O)cc12 | 1.2 | 3.9 | 12% | 36 | 23 | -6.9% | 7%
CN(C)CC1CC/C(=C\c2ccc(O)cc2)C1=O (configuration not stated) | 5.1 | / | -1.7% | -3 | / | 2.8% | /
CN(c1ccc(C(=O)NCCSCc2ccccc2)cc1)S(=O)(=O)c1ccccc1 | 2.3 | -0.8 | -0.8% | 12 | 7 | -2.2% | 21%
COc1cccc(CN2CCc3nc(SCC(=O)Nc4ccccc4)[nH]c(=O)c3C2)c1 | -1.2 | / | 0.5% | -3 | / | -3.7% | /
CC(=O)C[C@H](O)CC(=O)[C@H]1OC(=O)CCCCCCCCc2ccccc21 | 0.0 | / | -0.3% | -4 | / | -0.4% | /
Cc1ccc(C)c(-n2ccnc2SCC(=O)O)c1 | 2.5 | -1.3 | 1.2% | -1 | 7 | 0.7% | 1%
COc1ccc(C(=O)Nc2ccnn2C2CCN(C(=O)C3CCOC3)CC2)cc1 (configuration not stated) | -0.4 | 5.5 | 0.1% | -17 | -1 | -1.6% | 16%
Cc1ccc(C(=O)COc2ccccc2C(=O)Nc2ccccc2)cc1 | 1.3 | 3.0 | 1.4%[38.3 µM] | 41 | -7 | ? | 8%
C#CCOCCOCCOCCNc1nc(N2CCN(C(=O)[C@H]([C@@H](C)CC)n3cc(CCCCN)nn3)CC2)nc(N2CCN(C(=O)[C@H](C)n3cc(CCC(=O)O)nn3)CC2)n1 | 0.0 | -2.7 | -0.1% | -16 | -2 | 0.7% | ?
COc1ccccc1CCCNC(=O)C1CCC(=O)N(CCc2cccc(F)c2)C1 (configuration not stated) | 1.0 | 3.3 | 0.9% | -10 | 0 | 1.4% | 12%
Cc1ccc2c(=O)c(C(=O)c3cccc(Cl)c3)cn(CC(=O)NCc3ccccc3)c2n1 | -0.3 | / | 0.1% | 15 | / | -5.0% | /
Cc1cc(OCc2nc(-c3cccnc3)no2)c(C)cc1Br | 3.5 | 2.1 | 7.5% | 3 | 4 | 1.9% | 9%
CCCC[C@@H](CNC)NC[C@H](NCCCCC1CCCCC1)C(C)C | 1.0 | -1.9 | 0.5% | 36 | -1 | -4.2% | 20%
CCCCn1c(N)c(N(CCOC)C(=O)C2CCN(C(=O)c3ccc(F)cc3)CC2)c(=O)[nH]c1=O | 1.1 | / | ? | 15 | 1 | -1.8% | /
COc1ccccc1C(=O)NC(=O)CSc1nncn1C(C)C | 0.9 | / | 0.1% | 17 | 6 | -3.6% | /
CCc1c(C(C)=O)oc2ccc3c(C)cc(=O)oc3c12 | 1.1 | 1.8 | -0.7% | 11 | ? | / | 7%
COc1cccc(NS(=O)(=O)c2ccc3c(c2)[C@H]2C=CC[C@H]2[C@@H](c2ccccc2Cl)N3)c1 | -0.5 | / | 5.3% | 8 | / | -0.8% | /
CC(C)(C)c1ccc(OCC(O)CN2CCOCC2)cc1 (configuration not stated) | 0.0 | / | -1.0% | 1 | / | 1.1% | /
N#CC(C(O)c1ccccc1)N1CCOCC1 (configuration not stated) | 0.0 | / | -0.7% | -6 | / | -1.4% | /

Some of these compounds in order of molecular weight, descending:
SMILES | TRPML1 agonist | Menin MLL FP FL | PINK1 expr mod | TRPML1 blocker | TRPV1 PAM | ClpP mod | Sfp inh
C#CCOCCOCCOCCNc1nc(N2CCN(C(=O)[C@H]([C@@H](C)CC)n3cc(CCCCN)nn3)CC2)nc(N2CCN(C(=O)[C@H](C)n3cc(CCC(=O)O)nn3)CC2)n1 | 0.0 | -2.7 | -0.1% | -16 | -2 | 0.7% | ?
Cc1ccc2c(=O)c(C(=O)c3cccc(Cl)c3)cn(CC(=O)NCc3ccccc3)c2n1 | -0.3 | / | 0.1% | 15 | / | -5.0% | /
Cc1cc(OCc2nc(-c3cccnc3)no2)c(C)cc1Br | 3.5 | 2.1 | 7.5% | 3 | 4 | 1.9% | 9%

Screens (PubChem)
